Screening data deposited in PubChem BioAssay by National Center for Advancing Translational Sciences (NCATS).
RE007 growth inh = less growth of the S. pombe RE007 Vpr strain; S. pombe RE007 Vpr strain, BacTiter-Glo ATP luminescence, 24 h; control for the full effect not named in the record; Potency, µM (titrated, usually from 92.2 µM), without a hit: top-dose activity change, negative = less growth; 360,000 compounds, 0.21% hits; AID 651644; active = well fitted falling curve with a large enough effect; inconclusive = small, poorly fitted or top-dose-only effect; inactive = no such curve, though single readings can be large or run the other way;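 further: on the % scale 0 is the no-effect control and ±100 the full control effect; nearly all actives have a fitted effect of over 50% in size; the assay follows cell death caused by Vpr and the record does not say whether a fall means rescue or toxicity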
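Fission yeast RE007 carrying one integrated HIV-1 vpr copy, seeded at OD 0.01 in PMG+AL medium with 23 nL pinned compound. Grown 24 h at 30 degrees; viability read by BacTiter-Glo luminescence after 5 min.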
SARS PLP yeast = SARS-CoV PLP inhibition in yeast; AID 485353; Potency, µM (doses to about 32.9 µM), inactives show at the highest dose activity, positive = growth rescue; S. cerevisiae expressing SARS-CoV PLpro, growth rescue; control for the full effect not named in the record; 330,000 compounds, 0.19% hits; further: 0% is about no effect; nearly all actives have a fitted effect of over 55% in size; growth read by luminescence after 48 h
Cruzain noTriton = blocks cruzain activity in detergent-free assay; purified cruzain, Z-FR-AMC fluorescence, no detergent; Potency, µM, for inactives: max response, negative = inhibition, actives largely listed as inhibitors; 200,000 compounds, 2.3% hits; AID 1476; active means well fitted curve in the direction sought with a large enough effect; inconclusive means small, poorly fitted or top-dose-only effect, or another doubt; inactive means no such curve, though single readings can be large; an effect the other way counts as inactive or inconclusive;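 further: plate controls were enzyme without inhibitor for no effect and buffer without enzyme for full effect; nearly all actives have a fitted effect of over 40% in size; top concentration of the series not given in the record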
Target sequence (P25779 123-467 limits assumed): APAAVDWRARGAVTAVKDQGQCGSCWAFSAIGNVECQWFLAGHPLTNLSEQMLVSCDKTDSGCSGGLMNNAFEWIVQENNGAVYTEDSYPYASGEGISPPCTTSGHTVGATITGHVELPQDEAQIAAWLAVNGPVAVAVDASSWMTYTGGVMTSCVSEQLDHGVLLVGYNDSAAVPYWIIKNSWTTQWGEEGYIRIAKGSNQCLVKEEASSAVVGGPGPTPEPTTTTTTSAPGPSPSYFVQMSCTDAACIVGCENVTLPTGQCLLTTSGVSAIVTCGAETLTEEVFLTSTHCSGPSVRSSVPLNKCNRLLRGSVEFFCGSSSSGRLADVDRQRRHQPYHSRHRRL
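Purified cruzain at 1.5 nM, pre-incubated 15 min with compound at room temperature in 100 mM sodium acetate pH 5.5, 5 mM DTT, 0.00005% Triton X-100. Reaction started with 2 uM Z-FR-AMC; AMC fluorescence increase over 60 s gives rate.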
Cruzain inh Det = cruzain (T. cruzi) inhibition with detergent | 200,000 compounds, 0.43% hits | purified cruzain, Z-FR-AMC fluorescence, 0.01% Triton | Potency, µM, for inactives: max response, negative = inhibition, most hits filed as inhibitors | AID 1478; active means well fitted curve in the direction sought with a large enough effect; inconclusive means small, poorly fitted or top-dose-only effect, or another doubt; inactive means no such curve, though single readings can be large; an effect the other way counts as inactive or inconclusive;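 further: plate controls were neutral wells for no effect and buffer without enzyme for full effect; nearly all actives have a fitted effect of over 40% in size; top concentration of the series not given in the record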
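Z-FR-AMC hydrolysis (2 uM substrate) by cruzain (1.5 nM) monitored kinetically at ex 360/em 450 nm after 15 min room-temperature compound exposure; 0.01% Triton X-100, pH 5.5, 5 mM DTT.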
Marburg entry inh = inhibitors of Marburg virus binding or cell entry. Marburg virus pseudotyped entry inhibition, cell reporter; control for the full effect not named in the record; about a third of the inactives were read at about 46 µM. Potency, µM (doses to about 37.8 µM), inactives show at the highest dose activity change, negative = inhibition, hits mostly inhibitors. 300,000 compounds, 1.8% hits; active = well fitted inhibition curve with a large enough effect; inconclusive = small, poorly fitted or top-dose-only effect, or effect the other way; inactive = flat fitted curve, though single readings scatter; tested in HEK293 cells; about a fifth of its hits are not listed in these tables; further: on the % scale 0 is the no-effect control and ±100 the full control effect; luciferase read-out
StopGo reporter = lowers the luciferase signal of an FMDV 2A StopGo reporter. Potency, µM (titrated, usually from 57.9 µM), without a hit: top-dose signal change, negative = less light. AID 1159524. human cells with a luciferase reporter of 2A StopGo recoding; control for the full effect not named in the record. 410,000 compounds, 1.2% hits; active = well fitted falling curve with a large enough effect; inconclusive = small, poorly fitted or top-dose-only effect; inactive = no such curve, though single readings can be large or run the other way; tested in HEK293T cells; further: on the % scale 0 is the no-effect control and ±100 the full control effect; nearly all actives have a fitted effect of over 45% in size; luciferase light after 4 h
NS1 function inh = blocks influenza NS1 protein function | 270,000 compounds, 0.4% hits | Potency, µM (titrated, usually from 46.1 µM), for the others: at the top dose activity, positive = more growth | S. cerevisiae slowed by influenza A NS1, growth recovery by OD600; further: actives are rising curves; nearly all actives have a fitted effect of over 50% in size
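In this qHTS, NS1 from influenza A is expressed in budding yeast, where it slows growth. Cells are switched from glucose to 2% galactose medium (pH 6.0, -URA), treated with compound, and growth recovery is read at OD600.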
LASV entry inh = blocks Lassa virus binding to or entry into cells. Potency, µM (highest dose often 37.9 µM), for the others: at the highest dose activity change, negative = inhibition, actives largely listed as inhibitors. 300,000 compounds, 1.2% hits. Lassa virus pseudotype entry inhibition, cell reporter; control for the full effect not named in the record; active means well fitted inhibition curve with a large enough effect; inconclusive means small, poorly fitted or top-dose-only effect, or effect the other way; inactive means flat fitted curve, though single readings scatter; tested in HEK293 cells; further: on the % scale 0 is the no-effect control and ±100 the full control effect; nearly all actives have a fitted effect of over 50% in size; luciferase read-out
* hit, by the source's call; ? = inconclusive; . = no result given; & = joins results of further samples; [ ] = remark or other dose. Unless noted, the call rests on the fitted dose curve; in most records, active means well fitted rising curve with a large enough effect; inconclusive means small, poorly fitted or top-dose-only effect; inactive means no such curve, though single readings can be large or run the other way. Potency means the concentration at half of the fitted maximal effect. Not a hit list (roughly 4.7% active in at least one column).

SMILES | RE007 growth inh | SARS PLP yeast | Cruzain noTriton | Cruzain inh Det | Marburg entry inh | StopGo reporter | NS1 function inh | LASV entry inh
COc1cc(/C=N/NC(=O)c2cc(C)oc2C)cc(OC)c1OC | 2% | -1% | . | . | . | -3% | 1% | .
Cc1ccc(COc2ccsc2C(=O)O)cc1 | 7% | -1% | . | . | 6%[46.1 µM] | 1% | . | 10%
CCOC(=O)c1[nH]c2ccc(OCC)cc2c1NC(=O)CN1CCC2(CC1)OCCO2 | 17% | 0% | -4% | -7.7% | -15% | 0% | -19% | ?
COc1cc(/C=N/NC(=O)CSc2ccccn2)ccc1O | 2% | -1% | . | . | . | 21% | 5% | .
C=CCc1cccc2ccc(=O)oc12 | -3% | 3% | -3% | 0.4% | 2% | -6% | 2% | 9%
Cc1cc(Cl)ccc1NC(=O)CSc1nnc(-c2ccncc2)n1Cc1ccco1 | -9% | 2% | 14% | -6.1% | -10% | 6% | 4% | -13%
CCN(c1ccccc1)S(=O)(=O)c1ccc(C(=O)N(CCCN(C)C)c2nc3cc4c(cc3s2)OCO4)cc1 | -1% | ? | . | . | . | 0% | 11% | .
COC(=O)C1=CN(C(C)C)C=C(C(=O)OC)C1c1cc2c(cc1Br)OCO2 | 1% | -8% | 17% | -4.4% | 0%&0% | -26% | -3% | -19%
N#C/C(=C\c1cccs1)C(=O)c1ccccc1Cl | -64% | -4% | . | . | . | ? | -2% | .
CC(=O)Oc1ccccc1N1C(=O)c2ccc(C(=O)O)cc2C1=O | 16% | -1% | -12% | 3.8% | 1% | -18% | 7% | -8%
Cc1ccc(-c2n[nH]c(=S)n2/N=C/c2cc3c(cc2[N+](=O)[O-])OCO3)cc1 | 11% | -3% | 4% | -1.4% | -8% | 18% | 1% | ?
CC1=CC(c2ccccc2)n2nc(NC(=O)CCC(=O)O)nc2N1 (stereo not drawn) | 1% | 0% | . | . | -1%[46.1 µM] | 35%[activator] | 2% | 0%
CN(CC(=O)Nc1cccc(F)c1)C(=O)c1cccc(S(=O)(=O)N2CCN(c3ccccc3)CC2)c1 | -6% | 27% | . | . | ? | ? | -6% | -3%
COc1ccc(CCNc2oc(COc3ccc(F)cc3)nc2C#N)cc1 | -10% | -3% | 10% | -16% | -26% | -26% | -111% | ?
Cc1ccccc1CN1C(=O)C(O)(CC(=O)c2ccncc2)c2ccccc21 (stereo not drawn) | -11% | -47% | 25% | -1.2% | -2% | -8% | -37% | -25%
CC(C)(C)c1nnc(NC(=O)CCn2cnc3ccccc3c2=O)s1 | 5% | 1% | . | . | . | -19% | -2% | .
O=C(c1ccccc1)c1c(O)nc(-c2ccccc2)n(-c2ccccc2)c1=O | -12% | -19% | -1% | -0.8% | 23% | 0% | 3% | -13%
CC(C)C[C@@H](NC(=O)C1CCC(CNC(=O)[C@@H]2CCCN2C(=O)OC(C)(C)C)CC1)C(=O)O (stereo partly drawn) | 21% | 2% | . | . | 5%[46.1 µM] | -9% | 3% | ?
CCCCOC(=O)c1ccc(Nc2ncnc3[nH]ncc23)cc1 | . | . | -2% | 0.7% | . | -3% | . | -13%[46.1 µM]
O=C(COc1cccnc1[N+](=O)[O-])NCc1ccc2c(c1)OCO2 | 2% | -1% | . | . | . | 10% | -3% | .

3 structures out of the list, ordered by count of non-hydrogen atoms, descending.
SMILES | RE007 growth inh | SARS PLP yeast | Cruzain noTriton | Cruzain inh Det | Marburg entry inh | StopGo reporter | NS1 function inh | LASV entry inh
Cc1ccccc1CN1C(=O)C(O)(CC(=O)c2ccncc2)c2ccccc21 (stereo not drawn) | -11% | -47% | 25% | -1.2% | -2% | -8% | -37% | -25%
CC1=CC(c2ccccc2)n2nc(NC(=O)CCC(=O)O)nc2N1 (stereo not drawn) | 1% | 0% | . | . | -1%[46.1 µM] | 35%[activator] | 2% | 0%
Cc1ccc(COc2ccsc2C(=O)O)cc1 | 7% | -1% | . | . | 6%[46.1 µM] | 1% | . | 10%

The list continues:
SMILES | RE007 growth inh | SARS PLP yeast | Cruzain noTriton | Cruzain inh Det | Marburg entry inh | StopGo reporter | NS1 function inh | LASV entry inh
CCOC(=O)C1CCCN(C(=O)Cn2ncc3c4ccccc4n(Cc4ccccc4)c3c2=O)C1 (stereo not drawn) | . | . | ? | 2.1% | -2%[46.1 µM] | -2% | . | ?
Cc1ccc(NC(=O)c2nc(S(=O)(=O)Cc3ccccc3C)ncc2Cl)cc1C | 4% | -30% | . | . | ? | 40µM* | -6% | ?
CCOc1ccccc1NC(=O)c1ccc(NC(=O)C2CCCO2)cc1 (stereo not drawn) | 2% | -1% | . | . | 3%[46.1 µM] | 13% | -5% | .
O=C(CSc1nnnn1-c1ccccc1)N1CCN(C(=O)c2ccco2)CC1 | 2% | 3% | -10% | 6.6% | 21% | -13% | -2% | -2%
O=C(c1cc2cc3ccc(Cl)cc3nc2o1)N1CCCCCC1 | -3% | -8% | . | . | ? | 15% | -14% | 5%[46.1 µM]
Cc1ccc(-c2[nH]c(=O)n3ccncc23)s1 | -2% | -1% | -6% | -5.8% | ? | 2% | 2% | -11%
COc1ccc(/C(C)=N/OCC(=O)N2CC3(C)CC2CC(C)(C)C3)cc1 (stereo not drawn) | 8% | 3% | 13% | -3.1% | 12% | -4% | -8% | ?
CCN(CC)S(=O)(=O)c1ccc(NC(=O)CN(c2cccc(F)c2)S(C)(=O)=O)cc1 | 1% | 0% | -3% | -4.9% | ? | ? | -22% | ?
O=C(CC1N=C2c3ccccc3N=C(SCC(=O)Nc3cccc(C(F)(F)F)c3)N2C1=O)NCc1cccs1 (stereo not drawn) | . | . | 10% | -9.4% | ? | -17% | . | 1%[46.1 µM]
COc1cccc(NC(=O)NCCCN2CCN(c3ccc(F)cc3)CC2)c1 | -2% | -4% | 0% | 1.0% | ? | -7% | -3% | 11%
O=C(CN1CCSc2ccccc21)N1CCN(c2ccc(F)cc2)CC1 | . | . | -2% | -3.8% | . | -26% | . | -1%[46.1 µM]
c1ccc(N(c2ccccc2)c2nc(N3CCCC3)nc(-n3ccnc3)n2)cc1 | -18% | -15% | 3% | -6.3% | ? | ? | -52% | 1.6µM*
COc1ccc(Br)cc1CN1C(=O)c2ccccc2C1C(=O)NC1CCCCCC1 (stereo not drawn) | . | . | -1% | -1.4% | ? | 11% | . | -2%[46.1 µM]
CCN(CC)CCCNC(=O)CN1N=C(c2ccc(OC)cc2)CCC1=O | 3% | 0% | -5% | -0.1% | 4%&4%[46.1 µM] | -2%&-16% | 8% | ?
Cc1ccc(/C=C/c2nc3ccccc3c(=O)n2CCc2ccccc2)cc1 | 1% | 1% | -7% | -8.5% | 5% | ? | -5% | -2%
Cc1ccc(S(=O)(=O)Oc2ccc(/C=N/NC(=O)c3ccncc3)cc2)cc1 | -1% | -6% | . | . | -28% | -7% | -16% | 1%
CNC(=S)NNC(=O)c1ccccc1Cl | 2% | -1% | . | . | . | -10% | 0% | .
CN(C(=O)CSCC(=O)Nc1ccc(Cl)cc1)C1CCCCC1 | -9% | -4% | . | . | ? | -11% | . | -11%[46.1 µM]
Cc1ccc(C)c(NC(=O)N2CCN(c3nnc(C)c4c(C)n(-c5ccccc5)nc34)CC2)c1 | . | . | -8% | -2.3% | . | 0% | . | -4%[46.1 µM]
COc1ccc2cc(C3(C)NC(=O)N(CC(=O)NCC(F)(F)F)C3=O)ccc2c1 (stereo not drawn) | 8% | 4% | . | . | . | 10% | 6% | .
CCOc1ccc(CCNC(=O)c2ccc3c(c2)N(Cc2ccc(C)cc2)CCS3)cc1 | . | . | ? | -3.0% | 5%[46.1 µM] | 6% | . | -9%[46.1 µM]
CCNC(=O)NC(C(=O)OC)C12CC3CC(CC(C3)C1)C2 (stereo not drawn) | 31% | 1% | 2% | -3.0% | 17% | 5% | -7% | 18%
Oc1ccc(CN2CCCCC2)c2cccnc12 | -20% | -77% | 5% | -16% | ? | . | 11% | -65%
COc1ccc(S(=O)(=O)N(CCc2ccccc2)CC(=O)Nc2cc(C)cc(C)c2)cc1OC | . | . | ? | -5.8% | . | -8% | . | ?
Cc1cc(C(=O)OCC(=O)NC(C)C)c2ccccc2n1 | -3% | 2% | . | . | . | 0% | -44% | .
C/C(Cl)=C\CNC(C)c1ccccc1 (stereo not drawn) | -14% | 7% | 6% | 2.0% | -1%[46.1 µM] | -20% | -47% | -3%
COc1ccc(C(=O)N(c2ccc(C)cc2)S(=O)(=O)c2ccc(C)cc2)cc1 | . | . | ? | -2.9% | . | 8% | . | ?
Cc1ccc(N(CC(=O)NCc2ccc(F)cc2)S(=O)(=O)c2c(C)nn(C)c2C)cc1 | 13% | -1% | ? | -2.6% | 0%&0%[46.1 µM] | 17%&13% | -8% | -11%[46.1 µM]
CCCc1cc(C(=O)Nc2cc(OC)ccc2OC)cs1 | -5% | -7% | . | . | . | 13% | -40% | .
CN(Cc1nc(-c2ccccc2)no1)C(=O)c1ccco1 | 9% | 2% | . | . | 9%[46.1 µM] | 26% | -4% | 7%[46.1 µM]
O=C(NCCc1cccc(F)c1)C1CCN(S(=O)(=O)c2ccccc2)CC1 | 0% | 1% | . | . | . | -16% | -3% | .
S=c1oc(-c2ccncc2)nn1CCc1ccncc1 | 38% | 2% | -2% | -1.0% | -15% | -18% | -1% | -4%
O=C(CSc1ncc(-c2ccccc2)[nH]1)Nc1cccc(Br)c1 | . | . | 7% | -12% | 9%[46.1 µM] | 25% | . | 13%[46.1 µM]
O=C1CCC/C1=c1\s/c(=C/c2cccnc2)c(=O)n1-c1ccccc1 | 6% | . | . | . | ? | -1% | . | ?

An excerpt from above, limited to RE007 growth inh:
smiles	RE007 growth inh
CN(Cc1nc(-c2ccccc2)no1)C(=O)c1ccco1	9%
O=C(NCCc1cccc(F)c1)C1CCN(S(=O)(=O)c2ccccc2)CC1	0%
